# Assay outcomes (PubChem)
# HSV augment = enhancers of HSV replication in host cells, fold increase, host cell viability; HSV replication augmentation in cells; maximum fold increase; hit rate 0.005% among 220,000; AID 1956, 2009;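 active = peak rise of 1.5-fold or more in the series; inconclusive = self-fluorescent or not available for retest; tested in PC3 cells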;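 note: first round at 10 µM; read as green reporter fluorescence; hits show the peak of a series up to 25 µM; 1 = signal of infected wells without compound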
# PKD1 inh = inhibitors of human PKD1 kinase, biochemical, fluorescence polarization; PKD1 kinase fluorescence polarization assay; AID 797, 2007; hit rate 0.056% among 200,000; inhibition, %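 (about 10 µM by stock and volumes)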;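 active = inhibition of 50% or more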;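 note: controls were vehicle for no effect and a reference inhibitor for full effect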
# Target sequence (Q15139 whole entry, looked up): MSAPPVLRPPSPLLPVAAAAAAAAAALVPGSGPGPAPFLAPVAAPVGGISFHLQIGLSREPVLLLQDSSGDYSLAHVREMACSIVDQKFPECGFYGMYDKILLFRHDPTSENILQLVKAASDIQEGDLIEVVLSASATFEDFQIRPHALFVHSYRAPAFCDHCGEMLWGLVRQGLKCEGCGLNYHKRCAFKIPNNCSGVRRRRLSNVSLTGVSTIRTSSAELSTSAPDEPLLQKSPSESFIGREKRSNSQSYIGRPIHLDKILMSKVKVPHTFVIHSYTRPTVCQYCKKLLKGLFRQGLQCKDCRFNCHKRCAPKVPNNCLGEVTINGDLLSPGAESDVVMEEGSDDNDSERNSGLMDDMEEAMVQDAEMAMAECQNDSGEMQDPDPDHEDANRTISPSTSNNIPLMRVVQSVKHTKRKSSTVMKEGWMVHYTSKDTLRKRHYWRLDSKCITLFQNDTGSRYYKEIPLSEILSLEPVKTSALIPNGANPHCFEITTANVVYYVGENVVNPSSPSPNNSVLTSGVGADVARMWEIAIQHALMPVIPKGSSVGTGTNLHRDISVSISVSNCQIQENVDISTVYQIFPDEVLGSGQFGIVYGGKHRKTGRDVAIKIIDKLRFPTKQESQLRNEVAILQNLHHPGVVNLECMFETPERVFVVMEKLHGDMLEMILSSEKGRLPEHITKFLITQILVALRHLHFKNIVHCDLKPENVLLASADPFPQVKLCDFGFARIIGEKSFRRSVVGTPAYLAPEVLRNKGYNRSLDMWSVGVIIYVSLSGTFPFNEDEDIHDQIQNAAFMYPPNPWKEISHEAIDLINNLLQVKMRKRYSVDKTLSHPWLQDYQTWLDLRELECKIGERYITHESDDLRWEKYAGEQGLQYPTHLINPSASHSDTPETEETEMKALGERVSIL
# INS promoter inh = inhibitors of insulin promoter-driven GFP, primary screen, imaging, TRM-6 cells (human fetal islet line), eGFP reporter, cell count. inhibition, % at 2 µM. reporter expression induced with tamoxifen. hit rate 0.9% among 130,000;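 active = inhibition above the mean plus 3 SD, with well images judged a real hit on visual review, cut at about 60% in these data, passing the limit was not always enough; inconclusive = inhibition over the cutoff but images rejected on review; inactive = inhibition not above the cutoff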
# RGS16-Gao = modulators of RGS16 binding to Galphao, primary screen, biochemical, human proteins, multiplexed bead flow cytometry. hit rate 0.38% among 220,000. bead-based flow cytometry RGS16-Galphao binding, fluorescence; actives lie on both sides. Regulator of G-protein signaling 16 (Homo sapiens) + Guanine nucleotide-binding protein …. binding response (% of control), % at 10 µM;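 active = below 25% or above 175%, edge rows of some plates excepted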;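 note: Galphao activated by GDP with aluminum fluoride before binding; 100% = wells without compound and 0% = beads without RGS; some results beyond the cut were filed as inactive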
# GALR2 ag = GALR2 receptor agonists, primary screen, cell-based; hit rate 0.48% among 140,000; GALR2-expressing cells, agonist activation read-out; Galanin receptor type 2 (Homo sapiens), O43603; activation, %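 (tested at 5 µM)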;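 active = above mean plus 3 SD of all compounds, about 5% in these data, not always enough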;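 note: 0% = vehicle buffer wells and 100% = reference agonist at full effect; tested in CHO reporter cells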
# INS promoter inh cell count = recorded beside INS promoter inh, whose call it bears; normalized cell count, %; measured here: cell count, toxicity; reference of the scale not given here;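 cells exposed to compound for 48 h; stained nuclei by imaging scaled within each plate; lower means fewer cells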
# HSV augment primary fold = also measured in HSV augment; calls as there; fold increase; compound at 10 µM; measured here: primary screen fold increase 10 uM; tested in PC3 cells;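 GFP signal in the first replicate; 1 = infected wells without compound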
# An asterisk follows results filed as active; i = inactive; ? = inconclusive; / = not tested or not shown.
structure,HSV augment,HSV augment primary fold,PKD1 inh,INS promoter inh,INS promoter inh cell count,RGS16-Gao,GALR2 ag
CCOC(=O)c1[nH]c(CSc2nnnn2-c2ccccc2C)c(C(=O)OCC)c1C,?,/,-23.7,-38.7,89.8,100.7,-2.4
O=C(c1ccco1)N1CCN(C2CC(=O)N(c3ccccc3)C2=O)CC1 (configuration not stated),i,1,5.9,-3.1,180.2,105.8,-2.6
O=C(Nc1cc([N+](=O)[O-])ccc1Cl)C1CC1,i,0.96,-2.7,57.1,193.7,103.7,-1.3
COc1ccc(OC(=O)c2ccncc2)cc1,i,0.93,-12.2,-9.1,126.3,102.8,-2.2
CC(=O)N(C)c1ccc(NC(=O)Nc2ccccc2C)cc1,i,0.97,0.0,9.5,146.7,97.9,/
N#Cc1c(NCCN)nc(-c2ccccc2)c2c1CCCC2,i,0.73,2.0,-66.7,117.8,96.3,-0.3
COc1ccc(N(CC(=O)N/N=C/c2ccc(-c3ccc([N+](=O)[O-])cc3)o2)S(=O)(=O)c2ccc(C)cc2)cc1,i,1.12,0.7,41.2,97.7,96.3,-2.5
COC(=O)c1ccc(C2C(C(=O)OCC(C)C)=C(C)N=C3SCCC(=O)N32)cc1 (configuration not stated),i,0.7,-6.0,61.5,118.2,85.7,-0.4
Oc1ccc2ccccc2c1/C=N/c1nc2c(s1)CCCC2,i,0.963,-6.3,35.2,83.1,100.5,-0.9
COc1ccc(C(=O)CCN2CCc3cc(OC)c(OC)cc3C2)cc1,i,1.05,-8.0,63.0,70.8,101.0,/
CCN(c1ccccc1)S(=O)(=O)c1ccc(C(=O)OC(C)C(=O)NCCC2=CCCCC2)cc1 (configuration not stated),i,1.03,-3.9,5.1,91.1,102.1,-1.5
CC1CC(C)CN(C(=O)c2cc3cc(Br)cc(Br)c3o2)C1 (configuration not stated),i,1.07,-2.3,-8.3,153.1,108.4,/

# Part of the list above in order of heavy-atom count, low to high:
structure,HSV augment,HSV augment primary fold,PKD1 inh,INS promoter inh,INS promoter inh cell count,RGS16-Gao,GALR2 ag
O=C(c1ccco1)N1CCN(C2CC(=O)N(c3ccccc3)C2=O)CC1 (configuration not stated),i,1,5.9,-3.1,180.2,105.8,-2.6
COC(=O)c1ccc(C2C(C(=O)OCC(C)C)=C(C)N=C3SCCC(=O)N32)cc1 (configuration not stated),i,0.7,-6.0,61.5,118.2,85.7,-0.4
CCOC(=O)c1[nH]c(CSc2nnnn2-c2ccccc2C)c(C(=O)OCC)c1C,?,/,-23.7,-38.7,89.8,100.7,-2.4
CCN(c1ccccc1)S(=O)(=O)c1ccc(C(=O)OC(C)C(=O)NCCC2=CCCCC2)cc1 (configuration not stated),i,1.03,-3.9,5.1,91.1,102.1,-1.5

# Back to the main list; the 3 compounds before the break are reprinted first.
structure,HSV augment,HSV augment primary fold,PKD1 inh,INS promoter inh,INS promoter inh cell count,RGS16-Gao,GALR2 ag
COc1ccc(C(=O)CCN2CCc3cc(OC)c(OC)cc3C2)cc1,i,1.05,-8.0,63.0,70.8,101.0,/
CCN(c1ccccc1)S(=O)(=O)c1ccc(C(=O)OC(C)C(=O)NCCC2=CCCCC2)cc1 (configuration not stated),i,1.03,-3.9,5.1,91.1,102.1,-1.5
CC1CC(C)CN(C(=O)c2cc3cc(Br)cc(Br)c3o2)C1 (configuration not stated),i,1.07,-2.3,-8.3,153.1,108.4,/
O=C(CN(C(=O)c1csnn1)c1cccc2c1CCCC2)NC1CCCC1,i,0.97,4.7,-33.3,123.0,99.5,/
CCN1CCN(c2cc(C)c3cc(NC(=O)c4cccs4)ccc3n2)CC1,i,0.71,/,/,/,108.4,/
Clc1ccc(C2[C@H]3CN(Cc4cccnc4)[C@H](c4ccccc4)C34CC2(c2cccnc2)C4)cn1 (some centres not stated),i,0.97,/,/,/,97.9,/
CC(C)Oc1ccc(N2CC(C(=O)Nc3ccccn3)CC2=O)cc1 (configuration not stated),i,0.94,-6.2,/,/,111.6,/
C=CCNC(=O)c1ccc(OC)cc1,i,1.04,/,/,/,104.0,/
Clc1ccc(-c2nnc3sc(-c4ccc(Br)o4)nn23)c(Cl)c1,/,/,6.4,/,/,98.1,1.2
CCOC(=O)N1CCN(c2c(NCCN3CCN(Cc4ccccc4)CC3)c(=O)c2=O)CC1,i,0.71,-6.5,/,/,120.9,-3.0
Cn1ncc2cc(NC(=S)NC(=O)c3ccccc3)ccc21,i,1.02,0.5,-28.6,126.8,101.1,-2.6
O=c1oc(-c2ccccc2Cl)nc2ccsc12,i,1.01,0.5,/,/,106.9,-1.1
CCCNC(=O)N1c2ccccc2Sc2ccccc21,i,0.93,/,/,/,101.6,/
CCOC(=O)CN1C(=O)C2Cc3ccccc3CN2C1=S (configuration not stated),i,0.85,-3.5,-25.8,128.6,73.5,-2.9
CCOC(=O)CC(C#N)c1cn(C)c2ccccc12 (configuration not stated),i,0.99,-7.8,-25.0,104.3,100.0,-1.6
CC(=O)N1CCN(S(=O)(=O)c2cccc(C(=O)Nc3nc4ccccc4[nH]3)c2)CC1,i,0.92,-9.6,0.0,51.7,98.3,-1.2
CCCCNC(=O)CCCCn1c(=S)[nH]c2c([nH]c3ccc(OC)cc32)c1=O,i,0.94,10.9,/,/,95.8,/
CCN(CC)CCCN1CC(O)=C(c2nc3ccccc3s2)C1=N,i,0.83,1.4,65.7*,38.3*,114.5,-1.4
O=C(Cc1ccccc1)N1CCN=C1SCc1ccc([N+](=O)[O-])cc1,i,0.85,2.4,/,/,104.5,0.3
Cc1ccc(C)c(N2CCN(C(=O)C34CC5CC(C3)CC(n3nnc(C)n3)(C5)C4)CC2)c1,i,0.96,/,/,/,103.2,/
CCc1nc2c(sc3nc4c(cc32)COC(C)(C)C4)c(=O)n1Cc1ccco1,i,0.89,-3.1,52.4,144.9,97.2,-0.3
COCCn1c(SCC(=O)c2[nH]c(C)c(C(C)=O)c2C)nc2ccccc2c1=O,i,0.86,/,/,/,98.2,/
COc1ccc(OCC(=O)N/N=C(\CCC(=O)O)c2cccs2)cc1,i,0.98,-9.5,27.3,116.5,102.6,/
N#C/C(=C\C=C\c1ccccc1)c1nc(-c2ccc3c(c2)OCO3)cs1,i,0.97,-0.6,-17.6,33.9,86.3,-1.3
COc1ccccc1N(C)S(=O)(=O)c1ccc(C(=O)NCc2ccc3c(c2)OCO3)cc1,i,0.96,1.5,/,/,99.1,/
COc1ccc(CNc2ccc3c(c2)nc(C)n3C)cc1,i,0.96,0.3,/,/,100.7,-0.6
O=C(N/N=C\c1ccc(Cl)s1)c1cccs1,i,0.837,4.1,1.4,121.3,97.4,-3.5
CCc1ccc(CN2C(=O)CCC2(C)C(=O)NC2CCCC2)cc1 (configuration not stated),i,0.88,5.2,/,/,96.3,-0.3
Cc1cc(NC(=O)CC2(CC(=O)O)CCCC2)n(C)n1,i,1.07,/,/,/,102.6,/
CC(C)=CCN1CCN(Cc2ccc(Sc3nncn3C)o2)CC1CCO (configuration not stated),i,0.96,-9.4,/,/,99.2,/
O=C(O)CCCC(=O)Nc1ccccc1Oc1ccccc1,i,1.05,/,/,/,109.4,/
CCCCOC(=O)c1ccc(Nc2ncnc3nc[nH]c23)cc1,i,0.79,7.0,/,/,87.9,-0.7
COc1ccc(NC(=S)Nc2ccccc2SC)c(OC)c1,i,1.13,-6.5,/,/,104.8,/
N#CC1(Cc2ccccc2Cl)c2ccccc2C=CN1C(=O)c1ccccc1 (configuration not stated),/,/,2.5,-43.5,73.3,100.7,-2.2
Cc1c(Cl)c([N+](=O)[O-])nn1CCCC(=O)N1CCN(c2ccccc2)CC1,i,0.84,5.2,/,/,99.9,-0.7
CCOC(=O)N1CCc2c(sc3ncn(Cc4ccc(F)cc4)c(=O)c23)C1,i,0.99,/,/,/,100.9,/
Cn1c2c(c(=O)n(C)c1=O)C(NS(=O)(=O)c1ccc(Cl)cc1)(C(F)(F)F)C(=O)N2 (configuration not stated),i,1.01,-0.3,-12.5,71.4,106.0,-2.7
Cc1nc(C)n(CC(=O)N2CCCC(C(=O)c3ccc(Cl)cc3C)C2)n1 (configuration not stated),i,0.96,2.4,/,/,99.4,/
CCOC(=O)c1c(NC(=O)CSc2nnc(CNc3ccc(F)cc3)o2)sc(C(C)=O)c1C,i,0.83,0.3,-57.1,37.9,100.3,-1.3

# Next results:
# Values in the order – HSV augment, HSV augment primary fold, PKD1 inh, INS promoter inh, INS promoter inh cell count, RGS16-Gao, GALR2 ag
Cc1nc2ccc(NC(=O)c3ccc(Cl)c(NC(=O)c4cccs4)c3)cc2s1
 : i, 0.81, -5.2, 20.0, 104.2, 109.1, -1.1
CCNC(=O)COC(=O)c1cc(-c2ccco2)nc2ccccc12
 : ?, /, /, /, /, 102.3, /
Cn1nnnc1SCC(=O)Nc1ccccc1N1CCOCC1
 : i, 0.94, 2.4, -26.7, 100.2, 97.0, -1.9
CN(C)c1nccc(Nc2ccccc2)c1C#N
 : i, 0.79, 0.2, -116.7, 107.8, 100.9, -2.4
COCCNc1oc(-c2ccccc2Cl)nc1C#N
 : i, 0.97, -11.5, /, /, 100.5, -3.7
CC(=O)N/C(=C\c1ccccc1)C(=O)N1CCOCC1
 : i, 1, 2.1, /, /, 99.5, /
O=c1oc2ccccc2c(Nc2cccc3cccnc23)c1[N+](=O)[O-]
 : i, 0.79, -0.1, 17.6, 106.1, 109.1, /
COC(=O)N1CCN(c2ccc(C)c(C)c2)CC1
 : i, 1, 4.7, -17.1, 53.1, 13.1, /
COc1ccc(-c2[nH]c(-c3cc(OC)c4c(c3)OCO4)nc2-c2ccccc2)cc1
 : i, 0.76, 6.0, 14.7, 152.0, 104.0, -3.5
O=S(=O)(Nc1ccc(Cc2ccncc2)cc1)c1ccc(Cl)cc1
 : i, 0.97, 2.6, 12.5, 90.5, 114.9, /
O=c1cc(C23CC4CC(CC(C4)C2)C3)[nH][nH]1
 : i, 1.02, 9.1, -76.2, 118.2, 98.8, -2.0
CCC(C)Nc1ncnc2c1cnn2Cc1ccc(Cl)cc1 (configuration not stated)
 : i, 0.79, -6.8, /, /, 103.5, -2.0
COc1cc(O)c(C(CCN2CCCCC2)c2cc(OC)c(OC)c(OC)c2)c(OC)c1 (configuration not stated)
 : i, 1.15, /, /, /, 97.6, /
Cc1ccc(C)c(CN2CCCN(C(=O)Cn3ncc4c3-c3ccccc3OC4)C2)c1
 : i, 1.22, -5.0, /, /, 109.1, -0.3
COc1ccccc1CNC(=O)/C=C/C(=O)O
 : i, 0.93, /, /, /, 95.9, /
CCN(CC)CCN1C(=O)C(O)=C(C(=O)c2cc3cccc(OC)c3o2)C1c1cccs1 (configuration not stated)
 : i, 1.06, /, /, /, 99.0, /
O=C(CN(Cc1cccs1)C(=O)CSc1nnc(COc2ccccc2)o1)NC1CCCC1
 : /, /, -5.0, 18.8, 68.8, 105.5, 0.1
CCCCCCCC(=O)N1c2ccccc2NC(=O)C1CC(=O)Nc1ccc(C(=O)O)cc1 (configuration not stated)
 : i, 1.02, /, /, /, 100.1, /
CCOC(=O)C1CCN(C(=S)Nc2cccc(C)c2)CC1
 : i, 0.87, -3.9, -29.6, 114.2, 100.5, -2.0
C/C(=N\NC(=O)c1cnccn1)c1ccc([N+](=O)[O-])cc1
 : i, 1.02, /, /, /, 100.6, /
COc1ccc(/C=N/NC(=O)C2C(=O)NCC2c2ccccc2)c(OC)c1 (configuration not stated)
 : i, 0.99, 18.8, 0.0, 105.1, 101.0, -0.9
Cc1onc(-c2ccccc2Cl)c1C(=O)N1CCN(C/C=C/c2ccccc2)CC1
 : i, 0.78, -9.2, -12.1, 87.3, 97.4, -0.8
COc1ccccc1C1/C(=C(/O)c2ccc(C)cc2)C(=O)C(=O)N1Cc1ccco1 (configuration not stated)
 : i, 1, 1.1, /, /, 90.7, -1.5
